# High-throughput results from PubChem BioAssay.
# Anthrax LT inh – blocks cellular internalization of anthrax lethal toxin; 70,000 compounds, 0.67% hits; Cells, anthrax lethal toxin internalization, FRET ratio (460/530); AID 912; Potency, µM (titrated, usually from 40 µM), without a hit: top-dose activity change, negative = inhibition, hits mostly inhibitors; active = well fitted falling ratio curve with the 530 nm signal flat; inconclusive = other ratio curves, or a change in one channel alone; inactive = flat curves in the ratio and both channels; the % refers to the ratio; note: % is set by controls: 0 for no effect and ±100 for the full control effect; nearly all actives have a fitted effect of over 50% in size; tested in ME-180 cells; beta-lactamase reporter
# Prx2 Sm inh – blocks S. mansoni peroxiredoxin 2 enzymatic activity | S. mansoni Prx2 activity coupled to TGR/GSH (TGR is thioredoxin glutathione reductase), NADPH fluorescence loss, qHTS; some inactives read as strong as hits | Potency, µM | 65,000 compounds, 0.07% hits | AID 448; active means full or partial inhibition curve with a strong effect at the top dose; inconclusive means weaker partial or single-point curve; inactive means no accepted curve; note: series up to 57 µM; many of its hits are not listed in these tables
#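 Purified S. mansoni TGR and Prx2 in pH 7.4 phosphate buffer with EDTA and Tween-20 were preincubated with compounds for 15 min. Further NADPH/GSH was added, then a 2.5 mM H2O2 aliquot initiated turnover, followed kinetically by NADPH fluorescence.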
# An asterisk follows results filed as active; ? = inconclusive; nt = not tested or not shown; & = joins results of further samples; [ ] = another dose, or the depositor's remark. Potency is the fitted concentration of half-maximal effect. Not all compounds are listed. The share of hits here may be higher or lower than overall.
item	Molecule	Anthrax LT inh	Prx2 Sm inh
1	CC(=O)c1c(N2CCOCC2)nc(=S)n(Cc2ccccc2)c1C	2.7%	>57
2	COc1ccccc1OCCSc1nnc(C)n1-c1ccccc1	1.6%	>57
3	CCOC(=O)N1CCN(C(=O)c2cnn3c(C)c(Cc4ccc(C)cc4)c(C)nc23)CC1	?	nt
4	CC1=C(C(=O)NCc2ccccc2)C(c2cccnc2)n2ncnc2N1 (stereo not given)	7.8%	>57
5	COc1ccc(N2CCN(c3nc4c(c(=O)n(C)c(=O)n4C)n3Cc3ccccc3)CC2)cc1	?	>57
6	COc1ccc(C(=O)Nc2ccc(-c3ccc(C)o3)cc2)cc1S(=O)(=O)N1CCOCC1	-52.2%	>57
7	CC(C)CC(OC(=O)c1cccs1)C(=O)NCc1cccs1 (stereo not given)	27.4%	>57
8	COCCn1c(=O)[nH]c2cc(C(=O)OC)ccc2c1=O	-5.7%	>57
9	Cn1c(C(=O)N2COCC2(C)C)cc2c(=O)n3ccccc3nc21	21.5%	>57
10	O=C1CCCc2nc(N3CCCCC3)sc21	-3.6%	>57

# Record cards, as listed above.
# COc1ccc(N2CCN(c3nc4c(c(=O)n(C)c(=O)n4C)n3Cc3ccccc3)CC2)cc1 as listed: Anthrax LT inh: ?; Prx2 Sm inh: >57
# CCOC(=O)N1CCN(C(=O)c2cnn3c(C)c(Cc4ccc(C)cc4)c(C)nc23)CC1 as listed: Anthrax LT inh: ?; Prx2 Sm inh: nt
# CC(C)CC(OC(=O)c1cccs1)C(=O)NCc1cccs1 (stereo not given) as listed: Anthrax LT inh: 27.4%; Prx2 Sm inh: >57

# Continuation:
item	Molecule	Anthrax LT inh	Prx2 Sm inh
11	CCSc1nnc(NC(=O)Cc2ccc(OC)c(S(=O)(=O)N3CCOCC3)c2)s1	-13.3%	>57
12	COc1ccc(Oc2ncc3nc(-c4cccc(C#N)c4)c(=O)n(Cc4cccc(OC)c4)c3n2)cc1	?	>57
13	CC1(C)Oc2ccc(C(=O)NC3CCCC3)cc2N(CC(=O)NC2CCCCC2)C1=O	-6.6%	>57
14	Cc1cc(C)cc(N(CC(=O)NCc2ccco2)C(=O)CCC(=O)Nc2ccccn2)c1	10.4%	>57
15	Cc1cc(O)c(-c2cc(C(=O)Nc3ccc(S(=O)(=O)N4CCOCC4)cc3)[nH]n2)cc1C	?	>57
16	COc1ccccc1CC(=O)Nc1ccc(-c2nnc(-c3ccco3)o2)cc1	?	>57
17	Cc1sc2nc(-c3ccco3)oc(=O)c2c1C	?	>57
18	O=C(/C=C/Nc1ccc(F)cc1)c1ccco1	-1.1%	>57
19	COC(=O)c1ccc(NC(=O)CN(C2CCCCC2)S(C)(=O)=O)cc1	?	>57
20	O=C(c1cc2nc(-c3ccccc3)cc(C(F)(F)F)n2n1)N1CCOCC1	0.0%	>57
21	COC(=O)[C@@H]1C[C@H]1[C@@H](NS(=O)(=O)c1ccc2ccccc2c1)c1ccccc1	?	>57
22	CCCCC(=O)Nc1ccc(Cl)cn1	-3.9%	>57
23	Cc1nc(SCCO)c2oc3ccccc3c2n1	?	>57
24	Cc1nnc(NC(=O)CSc2nnc(Cc3cccn3C)n2-c2cccc(C)c2C)s1	5.7%	>57
25	CCOc1ccccc1-c1nc(-c2ccc(NC(=O)c3ccc(Br)o3)cc2)no1	?	>57
26	COc1cc(NC(=O)CN2CCN(S(=O)(=O)c3ccc(C(C)C)cc3)CC2)cc(OC)c1	-7.3%	>57
27	O=C(O)CN1C(=O)COc2cc(S(=O)(=O)N3CCCC3)ccc21	-4.5%	?
28	COc1ccc(Cl)cc1NC(=O)C1CSC(c2ccncc2)=N1 (stereo not given)	-19.3%	>57
29	CC(=O)Nc1ccc(NC(=O)Cn2cc3c(n2)CCCC3)cc1	-5.1%	>57
30	NC1=NC(c2ccc(Br)cc2)n2c(nc3ccccc32)N1 (stereo not given)	10.9%	>57
31	COc1ccccc1CN(Cc1ccco1)S(=O)(=O)c1ccc(-n2cnnn2)c(OC)c1	?	>57
32	O=C1C2=C(c3ccccc31)[N+](=O)[C@@H]1CCCC[C@@H]1N2[O-]	11.4%	>57
33	COc1ccc(CCN2C(=O)CC(Nc3ccc(N4CCOCC4)cc3)C2=O)cc1OC (stereo not given)	-0.4%	>57
34	CN1CCc2c(sc3nc(SCC(N)=O)n(-c4ccccc4)c(=O)c23)C1	-13.2%	>57
35	COc1ccccc1NC(=O)Cc1noc(CSc2cc(C)c3ccccc3n2)n1	-17.1%	>57
36	COc1ccc(C)cc1S(=O)(=O)N(CC(=O)O)c1ccc(F)cc1	2.1%	>57
37	Cc1ccnc(NC(=O)Nc2ccc3c(c2)N(C)C(=O)CS3)c1	?	>57
38	Cc1ccc2c(c1)c1c(n2C)C(C(N)=O)CCC1 (stereo not given)	-12.0%	>57
39	O=C(COC(=O)c1cncc(Br)c1)NCCC1=CCCCC1	-3.7%	>57
40	Cc1ccc(S(=O)(=O)C(C#N)c2nc3ccccc3nc2OC(C)C)cc1 (stereo not given)	4.7%	>57
41	O=c1c(CCc2ccccc2)nc2cnc(Nc3ccccc3)nc2n1C[C@H]1CCCO1	?	>57
42	COC(=O)c1ccccc1NC(=O)CSc1nccn1C	0.4%	>57
43	CN1CCc2cc3c(cc2[C@@H]1O)OCO3	5.9%[3.58 µM]	>57
44	COc1ccccc1NC(=O)N(Cc1ccccc1)c1ccccn1	?	>57
45	O=C(CSc1nc2ccccc2n1CC(=O)N1CCCC1)N1CCN(C(=O)c2ccco2)CC1	2.1%	>57
46	O=c1cc(-c2ccccc2)oc2c1ccc1ccccc12	25.1µM*	>57
47	COc1ccc(C(=O)Nc2cccc(C(C)=O)c2)cc1OC	3.2%	nt
48	COc1ccc(-c2ccc(CCC(=O)O)n2NC(=O)c2cccs2)cc1	5.2%	>57
49	COc1ccc(C(=O)N2CCC3(CCN(Cc4cc(C(F)(F)F)cc(C(F)(F)F)c4)CC3)CC2)cc1	14.6%	>57
50	CCC(C)c1ccc(O)c(NC(=O)c2cccnc2)c1 (stereo not given)	-0.1%	>57
51	CCn1c(=O)c2cc(C(=O)Nc3cc(C)on3)sc2c2ccccc21	-8.1%	>57
52	Cc1cc(C)c(S(=O)(=O)N2CCN(CCO)CC2)c(C)c1	9.1%	>57
53	COC(=O)c1cn(CC(=O)NCc2cccs2)c2ccccc12	-10.0%	nt
54	C=CCN1CCc2cc(O)c(O)cc2[C@H](c2ccccc2)C1	-17.5%&8.8%	>57&>57
55	Cn1c(=O)c2c(ncn2CC(=O)Nc2nnc(Cc3ccccc3)s2)n(C)c1=O	2.5%	>57
56	COc1ccc(OC)c(CCNC(=O)CS(=O)(=O)Cc2nc(-c3ccccc3C)oc2C)c1	-13.9%	>57
57	COc1ccccc1C1C2CCCCC2(O)CCN1CC(=O)Nc1ccccc1 (stereo not given)	-6.3%	>57
58	Cn1c(=O)[nH]c(=O)c2c1nc(SCCN1CCOCC1)n2Cc1ccccc1	-5.9%	>57
59	COc1ccc(C(CC(=O)NC(C)(C)C)n2cccc2)cc1 (stereo not given)	5.6%	>57
60	c1ccc(C[C@@H](Nc2cccnc2)c2ccccc2)cc1	?	>57

# New compounds follow
item	Molecule	Anthrax LT inh	Prx2 Sm inh
61	COc1ccc(C(=O)CSc2nnc(C(CO)NC(=O)c3ccc(OC)cc3)n2C)cc1 (stereo not given)	1.8%	>57
62	CCCn1c(NCc2ccco2)nc2ccccc21	?	>57
63	CCOC(=O)c1cnc2sc3c(n2c1=O)CCCC3	-14.7%	>57
64	Cn1c(-c2nonc2NC(=O)c2ccc(C(C)(C)C)cc2)nc2ccccc21	-2.8%	>57
65	CCOc1ccc(N2CC(C(=O)NCCc3ccc(OC)c(OC)c3)CC2=O)cc1 (stereo not given)	-0.1%	>57
66	O=C(CCc1ccccc1)Nc1nc2n(n1)C(c1ccc(Cl)cc1)CC(=O)N2 (stereo not given)	?	>57
67	CCOCc1cc(C2NC(=O)NC(C)=C2C(=O)OCC)ccc1OC (stereo not given)	-8.4%	>57
68	COc1cc(C(=O)NCC(c2cccnc2)N2CCN(c3ccccc3)CC2)cc(OC)c1OC (stereo not given)	25.3%	>57
69	COc1cccc(C(=O)N(CN2CCCC2=O)c2cc(C)on2)c1	2.2%	>57
70	O=C(CSc1ncn[nH]1)c1ccco1	-8.1%	>57
71	COc1ccc2cc3c(N)nn(C(=O)Cc4ccccc4OC)c3nc2c1	?	>57
72	COC(=O)Cn1c(C)nc2c(sc3nc(C)cc(C)c32)c1=O	nt	>57
73	Cc1onc(-c2ccccc2Cl)c1C(=O)NCc1ccc(N2CCCC2=O)cc1	-6.0%	>57
74	Cc1ccc(-c2nnn(Cc3nc4ccccc4s3)n2)cc1	?	>57
75	CCN(CCCNC(=O)CC1Oc2ccc(C)cc2NC1=O)Cc1ccccc1 (stereo not given)	-14.5%	>57
76	Cc1cccc(NC(=O)N[C@@H]2N=C(c3ccccc3)c3ccccc3N(CC(=O)c3ccccc3C)C2=O)c1	?	nt
77	CC(C)(C)OC(=O)NCC(=O)N1CCC(C(=O)O)CC1	nt	>57
78	Cc1ccc(-c2ccc(=O)n(CC(=O)NCCN(C)C)n2)cc1	-24.0%	>57
79	COc1cc(C(=O)NCc2ccc3c(c2)OCO3)ccc1OCc1c(C)noc1C	-5.7%	>57
80	CCCCOC(=O)Nc1ccc(C(=O)OC)cc1	-12.9%	>57
81	O=C(CNS(=O)(=O)c1cccs1)N1CCc2ccccc2C1	2.0%	>57
82	NC(N)=NC(N)=Nc1ccccc1 (tested in a mixture with another compound)	?	>57
83	Cc1cc(C)c2nc(NC3=NCN(CCN4CCOCC4)CN3)nc(C)c2c1	?	>57
84	C=C(C)c1cccc(C(C)(C)NC(=O)N2CCN(CC(N)=O)CC2)c1	3.5%	>57
85	CCN1C2=NCCCN2c2ccccc21	?	>57
86	CCn1c2ccccc2c2nnc(SCC(=O)Nc3ccc4c(c3)OCO4)nc21	-4.3%	>57
87	O=C(Nc1ccccc1)c1ccc(NCC2CCCO2)c(S(=O)(=O)N2CCOCC2)c1 (stereo not given)	?	>57
88	Cn1ncc2c1ncn1nc(COc3ccc4ccccc4c3)nc21	8.2%	>57
89	COc1ccc(C2C3=C(CC(C)(C)CC3=O)Oc3ncn(CCO)c(=N)c32)cc1OC (stereo not given)	?	>57
90	Nc1ccn([C@H]2CS[C@@H](CO)O2)c(=O)n1	6.1%	nt
91	Nc1c(C(=O)Nc2ccc([As](=O)(O)O)cc2)cnc2nnnn12	?	>57
92	O=C(CCCC(=O)OCC(=O)NC1CCCC1)Nc1ccccn1	?	>57
93	CNc1ncnc2ccc(-c3ccccc3C#N)cc12	?	>57
94	CCCCN(C)C(=O)c1oc2ccc(S(=O)(=O)N3CCCCCC3)cc2c1C	-16.5%	>57
95	COc1ccc2c(c1)CN([C@H](C)[C@@H]1CC[C@@H]3[C@H]4CC[C@H]5C[C@@H](O)CC[C@@]5(C)[C@H]4CC[C@]31C)CO2	-1.6%[8 µM]	>57
96	COCCn1nnnc1CN1CCN(c2cccc(C(F)(F)F)c2)CC1	2.7%	>57
97	COc1ccccc1NC(=O)Nc1nc(-c2cccnc2)nc2ccccc12	-1.2%	>57
98	CCOC(=O)c1sc(NC(=O)c2ccco2)nc1-c1ccccc1	-1.2%	>57
99	COc1cccc(CNC(=O)C2CCCN(S(=O)(=O)c3cnc[nH]3)C2)c1 (stereo not given)	1.3%	>57
100	CCOC(=O)N1CCC(NC(=O)c2cc(S(=O)(=O)N3CCC4(CC3)OCCO4)ccc2F)CC1	?	>57
101	CCOC(=O)c1oc2cc(O)c(CC)cc2c(=O)c1-c1ccc2c(c1)OCCO2	?	>57
102	O=C(Nc1ccon1)c1sc2cc(F)ccc2c1Cl	7.5%	>57
103	C=CCc1c(C)nn(CC(=O)O)c1-c1ccccc1	4.3%	>57
104	CCc1nnc(NC(=O)CCN2C(=O)CCC2=O)s1	-5.1%	nt
105	CCOC(=O)N1CCN(C(=O)COc2ccc(Br)cc2Cl)CC1	-6.0%	nt
106	O=C(c1ccccc1F)N1CCN(Cc2cccc(Cl)c2)CC1	4.2%	>57
107	CCOc1cc(C2C(C(=O)OC)=C(C)N=C3SCCC(=O)N32)ccc1OC(C)=O (stereo not given)	2.3%	>57
108	CC(=O)Nc1cccc(C)c1	-6.8%	nt
109	CC(C)CNC(=O)c1ccccc1NC(=O)c1ccc(CN2CCOCC2)cc1	-12.8%	>57
110	c1ccc(-c2nc(NCCCN3CCOCC3)c3ccccc3n2)cc1	?	>57

# 3 entries out of the list, arranged by molecular weight, highest first:
item	Molecule	Anthrax LT inh	Prx2 Sm inh
105	CCOC(=O)N1CCN(C(=O)COc2ccc(Br)cc2Cl)CC1	-6.0%	nt
110	c1ccc(-c2nc(NCCCN3CCOCC3)c3ccccc3n2)cc1	?	>57
108	CC(=O)Nc1cccc(C)c1	-6.8%	nt

# More compounds follow.
item	Molecule	Anthrax LT inh	Prx2 Sm inh
111	CCOc1ccc(N(Cc2cc3cc(OC)ccc3[nH]c2=O)C(=O)C2CCCO2)cc1 (stereo not given)	-0.7%	>57
112	COc1ccc(S(=O)(=O)N2CCCCC2)cc1C(C)C	nt	>57
113	CC(C)(C)N1C(=O)[C@H]2[C@@H]3[C@H](O)[C@H](O)CC(=O)[C@H]3CC[C@H]2C1=O	7.8%[8 µM]	nt
114	COCCn1c(C(=O)N2CCCC2)cc2c1C[C@H]1CN(C(=O)c3ccccc3)[C@@](Cc3ccc(OC)cc3)(C(=O)OC)[C@@H]21	?	>57
